Compound activity from PubChem.
RecA intein inh = Mtb RecA intein splicing inhibitors, primary screen, biochemical, fluorescence, HTS. cell-free RecA intein splicing. Protein RecA (Mycobacterium tuberculosis (strain ATCC 25618 / H37Rv)), P9WHJ3. 290,000 compounds, 0.75% hits. AID 2221, 2009. inhibition, %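 (about 9 µM by stock and volumes)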; in the data active = inhibition above about 30%; inconclusive = no clear call, values can overlap the other calls;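 also: 0% = vehicle wells and 100% = reference inhibitor control wells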
Target sequence (P9WHJ3 whole entry, looked up): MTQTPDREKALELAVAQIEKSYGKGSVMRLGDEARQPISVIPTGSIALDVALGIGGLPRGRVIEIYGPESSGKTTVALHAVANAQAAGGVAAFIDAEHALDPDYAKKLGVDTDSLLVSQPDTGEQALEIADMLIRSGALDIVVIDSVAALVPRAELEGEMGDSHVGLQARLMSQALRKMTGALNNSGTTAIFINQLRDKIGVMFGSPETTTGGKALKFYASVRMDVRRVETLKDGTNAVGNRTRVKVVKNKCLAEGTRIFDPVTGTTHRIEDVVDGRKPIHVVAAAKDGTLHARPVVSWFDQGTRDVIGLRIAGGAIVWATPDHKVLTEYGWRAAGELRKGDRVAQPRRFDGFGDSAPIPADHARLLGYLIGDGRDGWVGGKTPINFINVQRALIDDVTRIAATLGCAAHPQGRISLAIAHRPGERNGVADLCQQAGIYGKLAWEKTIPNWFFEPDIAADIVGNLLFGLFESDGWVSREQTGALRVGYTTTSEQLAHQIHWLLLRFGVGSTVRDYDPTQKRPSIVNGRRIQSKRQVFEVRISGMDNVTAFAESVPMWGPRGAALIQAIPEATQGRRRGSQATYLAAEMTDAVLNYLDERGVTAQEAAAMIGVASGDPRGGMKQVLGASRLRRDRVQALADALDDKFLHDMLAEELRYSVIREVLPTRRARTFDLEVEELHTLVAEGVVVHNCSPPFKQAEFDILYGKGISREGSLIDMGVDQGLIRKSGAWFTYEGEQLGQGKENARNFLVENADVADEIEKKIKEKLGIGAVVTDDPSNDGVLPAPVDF
YopH PTP inh = YopH tyrosine phosphatase inhibitors, primary screen, biochemical, fluorescence Ex485/Em525. YopH tyrosine phosphatase [Yersinia enterocolitica]. 140,000 compounds, 0.16% hits. AID 898, 2007. inhibition, %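 (about 10 µM by stock and volumes)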;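 active = inhibition of 50% or more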;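 also: controls were vehicle for no effect and minimum signal wells for full effect; inactives centre near -20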
Mtb betalactam = beta-lactam sensitization of Mtb H37Rv, H37Rv. M. tuberculosis H37Rv growth with meropenem, percent inhibition; hits of this screen are not shown here. inhibition, % at 25 µM. 330,000 compounds, 0.27% hits. AID 434955, 2010;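 active = about 74% or more and at least 40 points above the plate without the antibiotic, then above 30% in a dose series; inconclusive = first-round hits that could not be retested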;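 also: growth measured after seven days incubation then overnight dye step; 0% = bacteria only wells and 100% = bacteria with antibiotic; twin plates without the antibiotic show which effects depend on it; some results filed as inactive read as strong as hits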
Arbovirus anti = antivirals against arbovirus infection, primary screen, cell-based, full library, 10K replicate subset; arbovirus infection cell-based antiviral screen; inhibition, % at 10 µM; 200,000 compounds, 0.37% hits;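 active = inhibition from about 30%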;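 also: bluetongue infection of BSR cells; cell survival read as ATP light after 72 h; 0% = infected wells without compound and 100% = uninfected wells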
Mtb H37Rv = M. tuberculosis H37Rv growth inhibitors, H37Rv strain (AID 1626). M. tuberculosis H37Rv growth inhibition; higher % means a stronger effect. 220,000 compounds, 0.95% hits. inhibition, % at 10 µM, or IC50 in µM where a hit was titrated;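 active = confirmed in a dose series; inconclusive = inhibition above 80% but not taken into the dose series; inactive = below 80% or under 30% at every dose of the series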;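 also: bacteria incubated seven days before Alamar blue readout; 0% = bacteria only wells and 100% = bacteria with antibiotic wells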
Active calls of the source: *; ? = inconclusive; · = no result given. An excerpt (hit frequency here may not be typical).

SMILES	RecA intein inh	YopH PTP inh	Mtb betalactam	Arbovirus anti	Mtb H37Rv
COc1ccc(C(=O)CN2Cc3ccccc3C2=N)cc1	0.9	·	-1	·	-1%
COc1cccc(C2C(C(C)=O)=C(O)C(=O)N2CCNCCO)c1 (stereo not given)	-1.6	·	1	1	-6%
O=C(NNC(=O)C1CCCN(S(=O)(=O)c2cccc(F)c2)C1)C1CC1 (stereo not given)	-0.2	·	-16	-3	5%
COc1cccc(C(=O)N/N=c2\sc3ccccc3n2C)c1	-1.7	-9	66	-2	?
NC(=O)c1cc(S(=O)(=O)N2CCOCC2)cs1	-5.9	·	3	·	·
COC(=O)c1ccccc1NC(=O)CN1C(=O)CSC1=O	0.1	-5	6	9	-2%
Cc1cc2oc(=O)cc(CN3CCCCC3)c2cc1C	1.5	·	-1	·	·
CC(C)CC(=O)N1CCN(C(=O)c2ccc(F)cc2)CC1	-1.0	·	3	·	·
CC(C)n1cc(C(=O)N2CCCC(N3CCN(c4cccc(Cl)c4)CC3)C2)cn1 (stereo not given)	-1.7	·	5	·	·
CCOC(=O)CNc1nc(Cl)nc(Nc2ccc(Cl)cc2)n1	-1.0	·	-10	·	2%
CCc1ccc2c(CN3CCc4ccccc43)cc(=O)oc2c1	3.8	-40	-2	6	5%
CCC1CCCCN1CC(=O)Nc1cc(OC)c(OC)cc1C#N (stereo not given)	·	·	·	-12	-5%
c1ccc(-c2cn3c4c(sc3n2)CCCC4)cc1	0.5	-22	9	-18	-3%
COc1ccc(/C=C(\NC(=O)c2ccc(Cl)cc2)C(=O)NCCCN2CCOCC2)cc1OC	-1.4	·	-2	·	·
CCN(CC)CCCNC(=O)c1c(O)c2c([nH]c1=O)CCCC2	-1.0	-23	-9	0	-5%
CNc1c(NS(=O)(=O)c2ccc(Br)cc2)c(=O)oc2ccccc12	1.9	·	1	·	·
CC(C)(O)P(=O)(O)CCc1ccccc1	-0.1	·	-1	·	-5%
CC(C)C(=O)N1CCC(c2nc(-c3ccc(S(=O)(=O)N4CCN(C)CC4)cc3)no2)CC1	-2.0	·	2	7	-5%
CC1CCCCC12NC(=O)N(CC(=O)Nc1ccc(S(=O)(=O)N3CCOCC3)cc1)C2=O (stereo not given)	-0.8	6	-18	12	-11%
COc1ccc(NC(=O)c2ccc3c(c2)C(=O)N(Cc2cccnc2)C3=O)c(OC)c1	2.2	-27	-3	1	-11%
COc1ccc(C(=O)C2CCCN(C(=O)c3n[nH]c4c3CCCC4)C2)cc1OC (stereo not given)	0.0	·	-5	0	-3%
COc1cccc(C=NCCCN=Cc2cccc(OC)c2O)c1O	-0.3	·	-2	·	·
Cc1ccc(-c2nc(NCc3ccco3)n(S(C)(=O)=O)n2)cc1	0.3	·	3	-2	6%
CCCCn1c(SCC(=O)c2cc(OC)ccc2OC)nc2cc(S(N)(=O)=O)ccc21	-1.9	1	3	1	4%
CCOc1ccc(-c2nnc(-c3snc(-c4ccc(F)cc4)c3N=CN(C)C)o2)cc1	-24	-28	18	-1	2%
Cc1nc2ccc(NC(=S)NC3CCCCC3)cc2nc1C	1.0	·	-2	-3	8%
c1ccc(-c2ccn3nnnc3n2)cc1	-1.5	18	-7	-2	-3%
N#CC12CCCCC1CC1CCCCC1(C#N)N2Cc1cccnc1 (stereo not given)	2.9	-45	-4	-1	-1%
COc1cc(=O)n(C)c2c(O)cccc12	-44	·	2	2	-17%
CN(CC(=O)Nc1cccc(F)c1)C(=O)CSc1ccc(Br)cc1	3.4	·	1	·	·
C[C@@H](NC(=O)OC(C)(C)C)C(=O)NCC1CCC(C(=O)N[C@@H](Cc2ccccc2)C(=O)O)CC1 (stereo not given in full)	0.0	·	-6	·	·
COc1ccc(Cl)cc1C(=O)CSc1nnnn1C1CCCCC1	5.4	-14	3	-4	4%
O=C(NCCCN1CCCC1=O)c1sc2ccccc2c1Cl	0.9	·	-16	·	·
COc1cc(-c2nnc3sc(C4CCCCC4)nn23)cc(OC)c1OC	5.7	-5	49	-7	-5%
CCOC(=O)/C=C/C(=O)OCC(=O)Nc1ccc(Cl)cc1Cl	1.8	·	3	-1	2%
CC(c1ccon1)N(C)Cc1cn[nH]c1-c1ccc(-c2ccccc2)cc1 (stereo not given)	4.9	·	57	-12	59%
Cc1onc(-c2ccccc2)c1C(=O)N1CCN(S(=O)(=O)c2ccccc2Br)CC1	-0.7	·	3	·	·
O=C(O)c1ccc(S(=O)(=O)NC2CCCCC2)cc1	·	-19	0	15	-16%
Cc1nc(S/C(=C/c2ccc(-c3cccc(Cl)c3)o2)C(=O)O)n[nH]1	-2.0	-30	99	33*	·
COc1ccc(S(=O)(=O)NCc2cccnc2)cc1C	-1.8	·	-6	·	·

Brought forward from above: 6 compounds; new compounds follow.
SMILES	RecA intein inh	YopH PTP inh	Mtb betalactam	Arbovirus anti	Mtb H37Rv
CCOC(=O)/C=C/C(=O)OCC(=O)Nc1ccc(Cl)cc1Cl	1.8	·	3	-1	2%
CC(c1ccon1)N(C)Cc1cn[nH]c1-c1ccc(-c2ccccc2)cc1 (stereo not given)	4.9	·	57	-12	59%
Cc1onc(-c2ccccc2)c1C(=O)N1CCN(S(=O)(=O)c2ccccc2Br)CC1	-0.7	·	3	·	·
O=C(O)c1ccc(S(=O)(=O)NC2CCCCC2)cc1	·	-19	0	15	-16%
Cc1nc(S/C(=C/c2ccc(-c3cccc(Cl)c3)o2)C(=O)O)n[nH]1	-2.0	-30	99	33*	·
COc1ccc(S(=O)(=O)NCc2cccnc2)cc1C	-1.8	·	-6	·	·
Cc1nc2ncnn2c(C)c1CCC(=O)N1CCC2(CC1)OCCO2	-0.1	-47	3	8	-4%
c1cc(C(c2nnnn2C2CCCCC2)N2CCN3CCCC3C2)ccn1 (stereo not given)	-1.4	-5	-5	5	-9%
CCOc1ccc(CCNC(=O)COC(=O)c2ccc3c(c2)OCCO3)cc1OCC	-2.7	·	3	·	·
CNCc1cc2ccc(C)cc2[nH]c1=O	1.6	-35	-14	9	2%
COc1cccc2cc(C(C)=O)oc12	-2.1	·	1	0	-7%
O=S(=O)(c1ccc(Cl)cc1)c1cnc(-c2cccnc2)nc1-c1ccccc1	-0.1	-38	2	-6	11%
CCCCCc1c(C)nc(N2CCOCC2)[nH]c1=O	-1.6	-34	-2	16	2%
Cc1cccc2cc(COC(=O)c3ccccc3)c(=O)[nH]c12	-0.3	-39	4	0	0%
Cc1cc(C)c2nc(SCC(=O)NCCC3=CCCCC3)cc(C)c2c1	2.5	-16	1	-14	5%
CCOP(=O)(Cc1cc(C(=O)CC)c(C)o1)OCC	4.0	·	1	·	-5%
CC(Sc1nc2ccccc2c(=O)n1Cc1ccco1)C(=O)c1ccccc1 (stereo not given)	18	-41	4	1	-10%
Cc1ccc(C(=O)N2CCCC(Nc3ccc(F)c(F)c3)C2)cn1 (stereo not given)	-0.8	·	-3	·	·
CC(=O)N(O)CCCCCNC(=O)CCC(=O)N(O)CCCCCNC(=O)CCC(=O)N(O)CCCCCN	-5.6	-16	1	-38	-5%
C/C(N)=C(/C#N)C(=O)CSc1nc2ccccc2c(=O)n1CCCO	1.1	-15	3	-12	-4%
Cc1cc(C)nc(NS(=O)(=O)c2ccc(NC(=O)Cc3ccc(F)cc3)cc2)n1	1.1	·	-22	·	·
COC(=O)c1cc(C#N)c(N2CCOCC2)nc1C	3.5	·	-3	-2	-9%
COc1ccc(C(C)=O)cc1CSc1nnc(Nc2ccc(C)cc2C)s1	12	-27	3	-9	2%
O=C(CCCSc1nc2ccccc2[nH]1)NC1=NCCS1	0.8	-32	-8	6	-5%
C/C(=N\NC(=S)Nc1ccccc1C)c1ccc(O)cc1	23	·	·	4	-6%
CCOC(=O)CN1CCS(=O)(=O)CC1	3.4	·	-9	7	1%
CCn1cc(C(=O)N[C@H](C(=O)NCCN2CCOCC2)C(C)C)c(=O)c2cc3c(cc21)OCO3	-7.1	·	-2	·	·
O=C(Nc1ccccc1)N(Cc1ccccc1)CC(O)C(F)(F)F (stereo not given)	12	-70	-1	4	-2%
CC(CCc1ccccc1)NC(=O)C1CCN(S(=O)(=O)c2ccc(F)cc2)CC1 (stereo not given)	-0.5	·	-1	·	·
COc1ccc(-c2ccc(SC)nn2)cc1	-1.6	·	-5	-13	-2%
COC(=O)c1scc(C)c1N/N=C(\C)c1cc(F)c(Cl)cc1F	-2.6	-10	8	-5	-7%
O=C(NCCCN1CCOCC1)c1cccnc1	2.2	-40	7	6	-3%
COc1ccc(/C=N\NC(=O)CC(=O)Nc2cccc(Cl)c2)cc1OC	0.2	·	11	-10	3%
CCN1CCN(c2ccc(S(=O)(=O)N3CCCCC3)cc2NC(=O)Cc2ccccc2)CC1	-1.5	·	-3	·	·
Cc1nc2ccccc2c2oc(C(=O)NCCCN3CCCC(C)C3)cc12 (stereo not given)	-7.7	·	1	·	·
CCn1c(CNc2ccc(C)cc2C)nnc1SCC(=O)N1CCCc2ccccc21	-0.9	-40	3	-17	70%
Cc1ccc(OCC(=O)NNC(=O)C(=O)N2CCCC2)c(C)c1	2.4	5	34	4	?
Cc1ccc(-c2nnc(-n3ncc(C#N)c3N)c3ccccc23)cc1C	0.6	-30	-9	-15	-8%
CCCc1nnc2c(N(C)S(=O)(=O)c3ccccc3)nc3ccccc3n12	-2.9	-25	-7	-7	0%
O=C(Nc1nc(-c2ccccc2)cs1)c1ccc2c(c1)S(=O)(=O)c1ccccc1C2=O	-0.3	-2	8	-3	6%
CCCCn1c(N)c(N(CC(C)C)C(=O)CSCC(=O)Nc2ccc(OC)cc2)c(=O)[nH]c1=O	-0.8	·	0	·	·
CCOc1ccccc1N1CCN(C(=O)c2cc3c(s2)CCC3)CC1	7.5	-50	-1	7	3%
O=C(OCCN1C(=O)c2ccccc2C1=O)c1cc(=O)[nH]c2ccccc12	2.7	-27	-7	-1	-6%
CCc1ccccc1NS(=O)(=O)c1ccc2[nH]cc(C(=O)NC3CCCC3)c(=O)c2c1	-0.1	-23	3	-28	7%
Cc1ccc(NC(=O)N2CCCC2C(=O)NCc2ccc(Cl)cc2)cc1 (stereo not given)	-0.3	·	-24	·	·
Cc1ccc(C)c(CN2CCC(CNC(=O)CCc3nnc4ccc(N5CCCCC5)nn34)CC2)c1	0.9	·	-4	·	·
Cc1ccc(C(=O)Nc2ccccc2Oc2ccccc2)o1	-2.5	·	1	·	·
COC(=O)CCC(=O)N1CCCC(C(=O)c2ccc(Cl)cc2C)C1 (stereo not given)	0.6	·	0	·	·
O=C(CNc1ccccc1)Nc1cccc2ccccc12	0.8	·	3	·	·
CCC(c1nnnn1CCOC)N(Cc1cc2cc(C)c(C)cc2[nH]c1=O)CC1CCCO1 (stereo not given)	-4.9	-1	2	10	-10%
COc1cc(NS(=O)(=O)c2ccc(Br)s2)cc(OC)c1	3.1	-38	-5	-4	-8%
Cc1oc(-c2ccc(Cl)cc2)nc1CS(=O)CC(=O)NCCCN1CCOCC1 (stereo not given)	-2.1	·	1	·	·
COc1nc(C)nc2c1sc1nc3c(cc12)COC(C)(C)C3	-2.4	-6	9	4	0%
O=C(NCc1cccnc1)c1cn(-c2ccccc2)nc1-c1ccccc1	0.0	·	2	10	-3%
Cc1cc(C)n(-c2nc3ccccc3c(=O)n2OCC(N)=O)n1	0.0	10	68	-1	8%
Cc1ccc(-n2c(SCC(=O)Nc3ncc(Cl)cc3Cl)nc3ccccc32)cc1	13	9	-4	20	10%
Cc1cc(C)c(C#N)c(SC(F)F)n1	0.1	4	1	7	-8%
Cc1cc(C)cc(OC(C)C(=O)NCCCn2ccnc2)c1 (stereo not given)	3.1	·	-5	·	·
COc1cccc(C(=O)CC(C#N)c2ccc(F)cc2)c1 (stereo not given)	-1.4	·	59	·	·
CCOc1ccc(N2CC(C(=O)Nc3ccncc3)CC2=O)cc1 (stereo not given)	-3.0	·	-9	·	·
COC(=O)c1ccccc1NC(=O)NC1CCCCC1	1.5	·	0	·	-5%
COC(=O)C(C(=O)Nc1nc2ccccc2s1)C1CCCC1 (stereo not given)	1.2	·	18	-2	-2%
CN1CCc2c(OCC(=O)N3CCC(Cc4ccccc4)CC3)cccc2C1=O	1.3	·	-3	-15	7%
CCCc1[nH]nc2c1C1(CCN(C(=O)OCc3ccccc3)CC1)C(C#N)=C(N)O2	23	-24	-3	-4	1%
Cc1ccc(N(C)S(=O)(=O)c2cccc(C(=O)NC3=NCCS3)c2)cc1	3.7	2	4	-1	2%
Cc1ccn(S(=O)(=O)c2ccc(N3CCCC3=O)cc2)n1	-3.0	·	-1	·	·
